Vaccinia Venus – qHTS for Stage-Specific Inhibitors of Vaccinia Orthopoxvirus: Venus Reporter Primary qHTS. Vaccinia virus Venus reporter expression, fluorescence. Potency, µM (top dose mostly 36.5 µM), inactives show at the highest dose activity change, negative = inhibition, usual class: inhibitors. 330,000 compounds, 0.46% hits; active means well fitted inhibition curve with a large enough effect; inconclusive means small, poorly fitted or top-dose-only effect; inactive means no such curve, though single readings can be large or run the other way; tested in A549 cells; also: nearly all actives have a fitted effect of over 30% in size; inactives centre near -10
VACV mCherry inh – qHTS for Stage-Specific Inhibitors of Vaccinia Orthopoxvirus: mCherry Reporter Primary qHTS | Vaccinia virus mCherry reporter infection, fluorescence; about a quarter of the inactives have no number | Potency, µM (titrated, usually from 36.5 µM), without a hit: at the highest dose activity change, negative = inhibition, most hits filed as inhibitors | 310,000 compounds, 0.63% hits; active = well fitted inhibition curve with a large enough effect; inconclusive = small, poorly fitted or top-dose-only effect; inactive = no such curve, though single readings can be large or run the other way; tested in A549 cells; also: nearly all actives have a fitted effect of over 35% in size; inactives centre near -10
Starred values were filed as active, the others as inactive; i = inactive; ? = inconclusive; / = no result given; & = joins results of further samples; [ ] = remark or other dose. % is scaled to controls: 0 for no effect and ±100 for the full control effect; potency is read from the fitted curve at half-maximal effect.

SMILES | Vaccinia Venus | VACV mCherry inh
COc1ccccc1NC(=O)C1=C(C)Nc2nnnn2C1c1ccccn1 (centres undefined) | 7% | 7%
Cc1nnc(SCc2ccccc2)c2cc3sccc3n12 | -9% | -11%
COc1ccc2cc(S(=O)(=O)NCc3cccnc3)ccc2c1 | -9% | -6%
CC(C)Sc1nnc(SCC(=O)NCCCN2CCCC2=O)s1 | -28% | -23%
Cc1ccc2c(c1)-c1nc(-c3ccccc3)cc(-c3ccccc3)c1CO2 | 0% | 3%
CCOc1ccc(CNC(=O)Cn2ccc3cc(S(=O)(=O)N4CCCCC4)ccc32)cc1 | -14% | -14%
Cc1ccc(C(=O)N2CCN(Cc3ccc4c(c3)OCO4)CC2)cc1[N+](=O)[O-] | -18% | -2%
Cc1cccc(NC(=O)COC(=O)c2nn(-c3ccccc3C(F)(F)F)cc2O)c1C | -18% | i
Cc1cc(C)n(CCNC(=O)CC2C(=O)NCCN2Cc2ccc(C)o2)n1 (centres undefined) | -2% | -8%
O=C(Nc1ccccc1)c1cc(C2CCCCN2C(=O)CCCc2ccccc2)on1 (centres undefined) | ? | i
CCc1ccc(-c2cn3c(n2)SCC3)cc1 | -19% | ?
Cc1ccccc1Nc1nc(N)nc(COC(=O)c2cccc(S(=O)(=O)N(C)C)c2)n1 | -6% | -5%
CS(=O)(=O)Nc1nnc(CCc2ccccc2)s1 | -12% | -2%
OC[C@@H]1CN(CCN2CCOCC2)C[C@H](n2cnc3c(NC4CCCC4)ncnc32)O1 | 1% | 31%[activator]
CCSc1oc(-c2ccco2)nc1S(=O)(=O)c1ccc(Br)cc1 | -4% | -23%
O=C(NCCc1ccccc1)c1ccc(CSc2nc3ccncc3n2Cc2ccccc2F)cc1 | -16% | -28%
O=C(CNCc1ccc(F)cc1)Nc1ccc(C(=O)N2CCCCC2)cc1 | -11% | i
CSc1nnc(-c2ccccc2)n1C | -18% | -4%
COc1cc2c(cc1OC)C(=S)NC(C)(C)C2 | -24% | -19%
C=CCn1c(=S)[nH]c2sccc2c1=O | 0% | i
COc1ccccc1C(=O)NC(=O)COC(=O)c1ccc(Cl)nc1 | -5% | -13%
CCOc1ccc(NC(=O)N(CCC(C)C)C(C)c2ccco2)cc1 (centres undefined) | -15% | i
CN(CC(=O)Nc1cccc(S(=O)(=O)N2CCCC2)c1)CC(=O)Nc1ccc(Cl)c(C(F)(F)F)c1 | ? | ?
C=CCOC(=O)C1=C(C)NC(=O)NC1c1ccc(OC(=O)c2ccco2)c(OC)c1 (centres undefined) | -17% | /
CC12CCC(C(=O)N3CCCc4ccccc43)(OC1=O)C2(C)C (centres undefined) | -4% | -11%
c1ccc(OCc2nnc(-c3ccccc3)o2)cc1 | 7% | 7%
O=C(CSc1nnc(Cc2cccs2)n1C1CCCCC1)N1CCN(C(=O)c2ccco2)CC1 | -19% | -6%
CC(=O)Nc1ccc(NC(=O)C2CC(=O)N=C(N)S2)cc1 (centres undefined) | -9% | i
COc1cccc(CNC(=O)CCCCCn2c(=O)[nH]c3cc(OC)c(OC)cc3c2=O)c1 | 0% | -7%
O=C(c1ccoc1)N1CCC2(CCCN(Cc3ccc(F)c(F)c3)C2)C1 (centres undefined) | -20% | i

Pulled one by one from above:
SMILES | Vaccinia Venus | VACV mCherry inh
CSc1nnc(-c2ccccc2)n1C | -18% | -4%
COc1ccccc1C(=O)NC(=O)COC(=O)c1ccc(Cl)nc1 | -5% | -13%
COc1cc2c(cc1OC)C(=S)NC(C)(C)C2 | -24% | -19%

(continued)
SMILES | Vaccinia Venus | VACV mCherry inh
COc1ccc(-n2cnc3cc(N)ccc32)cc1 | -5% | -10%
CCOC(=O)c1c(N)sc2c1CCS(=O)(=O)C2 | -9% | -9%
CCN(CC(=O)Nc1ccccc1OC)C(=O)c1ccc(N(C)S(=O)(=O)c2ccc(C)cc2)cc1 | -6% | i
CCOc1ccc(-n2cc(-c3ccccc3)c3c(=O)[nH]cnc32)cc1 | -24% | ?
Cc1cccc(C)c1NC(=O)CSCc1cccc(CSCC(=O)Nc2c(C)cccc2C)n1 | -11% | -13%
CC(C)(C)OC(=O)NNC(=O)Nc1ccccc1C(F)(F)F | -7% | -4%
COc1ccc(CC(=O)NCCC(C)C)cc1S(=O)(=O)N1CCOCC1 | -7% | -17%
Cc1csc2nc(O)c(C(=O)NC3CCCCC3C)c(=O)n12 (centres undefined) | 1% | 6%
COc1ccc(CN2CCCC(c3nc(C)ncc3-c3ccc(F)cc3)C2)c(OC)c1OC (centres undefined) | -16% | -12%
N#Cc1cnn2c(-c3ccccc3)ccnc12 | -12% | -18%
COc1cccc(NC(=O)CSC2=C(C#N)C(c3ccco3)C3=C(CCCC3=O)N2)c1 (centres undefined) | ? | ?
COc1ccc(Cl)cc1NC(=O)CCn1c(=O)c2cccn2c2ccccc21 | 3% | 8%
N#Cc1c(-c2ccc(F)cc2)c(-c2ccc(F)cc2)nn(CCO)c1=O | -21% | i
CCOc1ccc(CCNC(=O)c2cc3sccc3n2CC)cc1OCC | -13% | -3%
Cc1c(CN2CCOc3ccc(C(C)(O)COc4ccccc4)cc3C2)cnn1C (centres undefined) | 5% | -16%
COc1cccc(CC(=O)NC2CCSc3ccccc32)c1 (centres undefined) | -17% | -18%
COc1ccccc1-n1c(=O)c2c3c(sc2n(C)c1=O)CN(C(C)=O)CC3 | -4% | -20%
Cc1nn(C)c(Oc2cccc(Cl)c2)c1C(=O)Nc1ccc(F)cc1F | -8% | -19%
O=C(NC12CC3CC(CC(C3)C1)C2)c1ccc(-c2ccccc2Cl)o1 | -21% | /
C=CCn1c(=O)c(C(=O)Nc2ncccc2O)c(O)c2ccccc21 | -15% | ?
CCOC(=O)c1ccc2nc(NC(=O)c3ccco3)sc2c1 | -16% | -2%
Cc1nc(-c2ccc(C(=O)N3CCOCC3)cc2)cs1 | -6% | /
COc1ccc(C(=O)Nc2nnc(C3=COCCO3)o2)cc1 | -1% | i
O=C(CSCc1c[nH]c(=O)[nH]c1=O)OCC(=O)c1ccc(Br)cc1 | -9% | -5%
Cc1nnc(SC(C)C(=O)Nc2ccc(S(=O)(=O)NC3CCCCC3)cc2)s1 (centres undefined) | -16% | -12%
O=C1C=CC(=O)N1Nc1ccc(Br)cc1 | -10% | -13%
N#Cc1ccccc1OCC(=O)OCC(=O)N1CCN(C(=O)c2ccco2)CC1 | -4% | i
Cc1ccc(OC(C)C(=O)N2CC(=O)Nc3ccccc32)c(C)c1 (centres undefined) | -11% | -18%
COC(=O)c1sc2cccc(F)c2c1S(=O)(=O)Nc1cc(C)c(Cl)cc1OC | 1% | -8%
Cc1ccc(C(C(=O)NC(C)(C)C)N(Cc2ccco2)C(=O)CCC(=O)Nc2ccccn2)cc1 (centres undefined) | -12% | -13%

Reprinted from the part before: 2 compounds; new compounds follow.
SMILES | Vaccinia Venus | VACV mCherry inh
COC(=O)c1sc2cccc(F)c2c1S(=O)(=O)Nc1cc(C)c(Cl)cc1OC | 1% | -8%
Cc1ccc(C(C(=O)NC(C)(C)C)N(Cc2ccco2)C(=O)CCC(=O)Nc2ccccn2)cc1 (centres undefined) | -12% | -13%
CCCCC(=O)NC1(C(F)(F)F)C(=O)N(CC(C)C)C2=C1C(=O)CC(C)(C)C2 (centres undefined) | -9% | -7%
CCn1cc(C(=O)N2CCCc3ccccc32)c2cc(OC)c(OC)cc2c1=O | -11% | -19%
COc1cccc(N=Nc2c(=O)[nH]n3c(C)cc(C)nc23)c1 | -11% | -16%
CC(=O)N1[C@H](C)C=C[C@]1(Cc1ccccc1)C(=O)NCCN1CCOCC1 | -8% | -13%
COc1ccc(OC)c(/C=C2\SC(N3CCCCC3)=NC2=O)c1 | -12% | -2%
COC(=O)c1cc(Br)c(=O)n(CCN2CCOCC2)c1 | -7% | -17%[1.46 µM]
O=C(Nc1c(-c2ccccc2)nc2ccccn12)c1ccccc1F | -7% | -9%
O=C(Nc1ccccn1)c1ccc(S(=O)(=O)N2CCCCC2)cc1 | -15% | -16%
Cc1ccc(NC(=O)c2oc3ccccc3c2C)nc1 | -8% | -10%
COc1ccnc(-n2cccc2C#N)c1C#N | -8% | -7%
COc1c(O[C@@H]2O[C@H](CO)[C@@H](O)[C@H](O)[C@H]2O)cc2c(c1OC)-c1ccc(SC)c(=O)cc1C(NC(C)=O)CC2 (some centres undefined) | -7% | -12%
COCc1ccc(-c2c(-c3cc(OC)cc(OC)c3)oc(=O)c3cc(OC)c(OC)cc23)cc1 | -16% | -4%
CCOC(=O)c1c(C)oc2nc(C)nc(NCCCN3CCN(c4cc(C)ccc4C)CC3)c12 | -5% | i
CCOc1cccc2sc(N(CCN(CC)CC)C(=O)c3ccco3)nc12 | -9% | -8%
Cc1cc(C)n(C(=O)CCN2C(=O)c3ccccc3C2=O)n1 | 0% | -9%

Part of the list above, in CSV form.
smiles,Vaccinia Venus,VACV mCherry inh
CN(CC(=O)Nc1cccc(S(=O)(=O)N2CCCC2)c1)CC(=O)Nc1ccc(Cl)c(C(F)(F)F)c1,?,?
C=CCOC(=O)C1=C(C)NC(=O)NC1c1ccc(OC(=O)c2ccco2)c(OC)c1 (centres undefined),-17%,/
CC12CCC(C(=O)N3CCCc4ccccc43)(OC1=O)C2(C)C (centres undefined),-4%,-11%
c1ccc(OCc2nnc(-c3ccccc3)o2)cc1,7%,7%
O=C(CSc1nnc(Cc2cccs2)n1C1CCCCC1)N1CCN(C(=O)c2ccco2)CC1,-19%,-6%

New compounds follow.
SMILES | Vaccinia Venus | VACV mCherry inh
COc1cc(/C=N/OCC(=O)NC23CC4CC(CC(C4)C2)C3)ccc1OCc1ccccc1 | ? | ?
COCCCNC(=O)c1ccc(CSc2nc3cccnc3n2Cc2ccc(OC)cc2)cc1 | -22% | -9%
CC(Sc1nnc(CN2CCCC2)n1Cc1ccccc1)C(=O)Nc1ccc(F)c(F)c1F (centres undefined) | -18% | -13%
Cn1ccc2c(N3c4ccccc4CCc4ccccc43)cc3c(c21)C1CCC3O1 (centres undefined) | ? | ?
O=c1[nH]c2ccccc2s1 | -6% | i
COC(=O)C1=C(c2cc3ccccc3s2)C[C@@H]2CC[C@H]1N2C(=O)NCc1ccccc1 | -28% | -17%
Cc1ccc(C2=CC(=O)C[C@H](c3ccc(Cl)cc3)C2)cc1 | -18% | i
Cc1cccc(-n2c(/C=C/c3cccc4ccccc34)nc3ccccc3c2=O)c1 | -26% | -25%
CCOC(=O)c1nc(Nc2cccc(C)c2)c2ccccc2n1 | -10%&-7% | -13%
O=C1CSC(c2ccccc2Cl)N1 (centres undefined) | -4% | -1%
CCOc1ccc(N/C(C)=C\C(=O)c2ccc3c(c2)OCCO3)cc1 | -9% | -14%
COc1ccc(OCCCCn2c(CO)nc3ccccc32)cc1 | 21% | -5%
CN1CCN(C(=O)CSc2nc(-c3ccco3)cc(C(F)(F)F)n2)CC1 | 1% | -21%
COc1cc(NC(=O)c2ccc(COc3ccccc3Br)o2)cc(OC)c1OC | -25% | -28%
O=C1CN(C(=O)COC(=O)CCc2ccccc2)c2ccccc2N1 | -13% | -15%
CN(C)S(=O)(=O)c1ccc2c(c1)N(CC(=O)N1CCN(c3cccc(Cl)c3)CC1)CCS2 | -4% | -7%
Cc1ccc2nc(SCC(=O)NC(=O)NCc3ccco3)[nH]c2c1 | -12% | -20%
CC1CCc2noc(NC(=O)c3ccc([N+](=O)[O-])cc3)c2C1 (centres undefined) | -7% | i
Cc1cc(C)cc(Nc2nc3cc(Cl)c(Cl)cc3nc2-n2nc(C)cc2C)c1 | -11% | i
COc1ccccc1NC(=O)C(=O)NCC1COc2ccccc2O1 (centres undefined) | -13% | -1%
CC1=CC2=NC(=O)/C(=C\c3ccc(OC(=O)c4ccco4)cc3)C(=N)N2O1 | 9% | i
CC(C)CCCCCCCCCCCCC(=O)NCC(=O)NC1C(C)OC(Nc2ncnc3nc[nH]c23)C(O)C1O (centres undefined) | 2µM* | ?
O=C(c1ccc(F)c(F)c1)N1CCOc2ccc(CN3CCN(Cc4ccccn4)CC3)cc2C1 | -12% | -4%
COCCCNC(=O)Cn1c(=O)n(CCCCCC(=O)Nc2ccccc2)c(=O)c2sccc21 | -12% | i
NN(Cc1ccccc1)C(=S)Nc1ccc(Cl)c(Cl)c1 | -5% | ?
COc1ccc(CC(=O)Nc2ccc(S(=O)(=O)Nc3onc(C)c3C)cc2)cc1OC | -4% | i
COc1ccccc1-c1ccccc1C1=CC(=O)CC(C)(C)C1=O | -12% | ?
N#C/C(C(=O)N1CCCCC1)=C1/N=C(N)c2ccccc21 | -19% | -18%
COC(=O)COc1ccc(S(=O)(=O)N2CCCCCC2)cc1C | -1% | -2%
O=C(Nc1ccc(F)cc1)c1ccc(S(=O)(=O)NCc2cccnc2)cc1 | 2% | -10%
O=C1c2cccc3cccc(c23)C(=O)N1Cc1cccnc1 | -6% | -14%
O=C1CC(N2CCOCC2)C(=O)N1Cc1ccc(N2CCCC2=O)cc1 (centres undefined) | -14% | i
CCN(CC(=O)Nc1cc(Cl)ccc1-n1cncn1)Cc1nc2ccccc2c(=O)[nH]1 | -11% | -1%
Cc1ccc(-c2noc(CNS(=O)(=O)c3ccccc3)n2)cc1 | -3% | -9%
CCOC(=O)N1CCN(C(=O)c2cc(C)c3c(C)nn(-c4ccccc4)c3n2)CC1 | -14% | i
O=C(NCc1ccccc1Cl)c1cccc(C(F)(F)F)c1 | -19% | i
CCN(CC)c1ccc2cc(-c3nc(-c4cc(OC)c(OC)c(OC)c4)no3)c(=O)oc2c1 | 15% | -13%
